CCT modulator: High-Throughput Screening for Modulators of Cytosolic Chaperonin Activity. hit rate 0.3% among 360,000. AID 651819, 2012. purified chaperonin ATPase assay, HTRF ADP detection, 30 min. activity change, % (concentration not given with the values), hits read low; in the data active = activity change below about -30%; note: % is set by controls: 0 for no effect and ±100 for the full control effect
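Nucleotide hydrolysis assay: TRiC at 20–40 nM final (set by batch activity) with 10 uM ATP, 30 min at 37 °C, in presence of 76 uM compound. Detection by competitive ADP HTRF, 30 min ambient.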
PI5P4Ka inh: qHTS for Inhibitors of phosphatidylinositol 5-phosphate 4-kinase (PI5P4K) | PI5P4Kalpha enzyme, ADP-Glo luminescence, 60 min; stronger effect = lower value | Phosphatidylinositol 5-phosphate 4-kinase type-2 alpha (Homo sapiens), P48426 | AID 652105, 2013 | max response, % | hit rate 1.2% among 330,000; active = max response of -50% or lower; inconclusive = between -30% and -50%; inactive = -30% or higher; note: value at the top dose of about 77 µM; % is set by controls: 0 for no effect and ±100 for the full control effect
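ADP-Glo luminescence end-point after a 60 min room-temperature kinase reaction. PI5P4Kalpha and substrate in HEPES pH 7.4 buffer with EGTA, 0.1% CHAPS and 5% DMSO; ATP at 5 microM final.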
EPAC1 ag: qHTS for Agonist of cAMP-regulated guanine nucleotide exchange factor 3 (EPAC1): primary screen; AID 720707, 2013; hit rate 0.073% among 360,000; Potency, µM (highest dose often 154 µM), for inactives: at the top dose activation, usual class: activators; EPAC1 agonist qHTS, biochemical assay; response scale: 100% = response to 6.5 mM cAMP; Rap guanine nucleotide exchange factor 3 (Homo sapiens), O95398; note: potency is the fitted concentration of half-maximal effect; nearly all actives have a fitted effect of over 60% in size
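Multi-concentration qHTS readout: loss of Rap1B-bound BODIPY-GDP fluorescence driven by 100 nM EPAC1 with excess GDP (50 uM), monitored kinetically at room temperature; agonist response expressed relative to 6.5 mM cAMP.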
EPAC1 antagonist: qHTS for Antagonist of cAMP-regulated guanine nucleotide exchange factor 3 (EPAC1): primary screen. AID 720709, 2013. hit rate 0.14% among 360,000. EPAC1 GEF assay, Rap1b-BODIPY-GDP exchange fluorescence. Potency, µM (titrated, usually from 115 µM), inactives show at the highest dose activity change, negative = inhibition, hits mostly inhibitors;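 note: potency is the fitted concentration of half-maximal effect; plate controls were vehicle for no effect and positive control for full effect; nearly all actives have a fitted effect of over 50% in size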
WRN inhibitor: qHTS for Inhibitors of WRN Helicase; WRN helicase unwinding, fluorescent forked duplex, kinetic; Potency, µM (series often up to 114 µM), inactives show top-dose activity change, negative = inhibition, hits mostly inhibitors; hit rate 0.46% among 360,000; AID 651768, 2012; note: potency is the fitted concentration of half-maximal effect; % is set by controls: 0 for no effect and ±100 for the full control effect; nearly all actives have a fitted effect of over 55% in size
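Kinetic red-fluorescence monitoring (525/598 nm) tracks WRN helicase activity after 100 nM fluorophore-quencher forked duplex and 2 mM ATP are added to 20 nM enzyme pretreated 15 min at room temperature with compound.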
PLK1 PBD block: qHTS for Inhibitors of PLK1-PDB (polo-like kinase 1 - polo-box domain): Primary Screen; Plk1 PBD binding of FITC phosphopeptide, fluorescence polarization; hit rate 2.8% among 360,000; Potency, µM, without a hit: max response, negative = inhibition, actives largely listed as inhibitors; note: potency is the fitted concentration of half-maximal effect; series mostly up to about 57 µM; % is set by controls: 0 for no effect and ±100 for the full control effect; nearly all actives have a fitted effect of over 65% in size
IL2 activator: qHTS of IL-2 Activators; IL-2 activation reporter assay, cell-based qHTS; stimulated with anti-CD3/CD4/CD28 beads; in transgenic mouse T cells; activation, % (series mostly up to about 46 µM); hit rate 0.065% among 360,000; AID 652025, 2013; in the data active = activation above about 50%; inconclusive = mostly about 30% to 49%; note: 0% is about no effect
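Readout: EGFP and DsRed signals by fluorescent plate cytometry. Unstimulated transgenic mouse T cells received compound 60 min before antibody-bead stimulation, then incubated 18 h at 37 degrees C.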
The depositor's hits bear a star; ? = inconclusive; . = no result given; [ ] = remark or other dose. Unless noted, calls come from the whole dose curve; as a rule, active = well fitted curve in the direction sought with a large enough effect; inconclusive = small, poorly fitted or top-dose-only effect, or another doubt; inactive = no such curve, though single readings can be large; an effect the other way counts as inactive or inconclusive. This is a subset, so the mix of outcomes need not match the whole.

CCT modulator	PI5P4Ka inh	EPAC1 ag	EPAC1 antagonist	WRN inhibitor	PLK1 PBD block	IL2 activator	SMILES
-4.5	-2.7	2.2%	-15.7%	0.0%	-4.4%	-2.5	CCn1c(SCC(=O)Nc2ccc(Cl)cc2)nnc1C1CC1
-0.9	5.4	11.4%	-24.4%	-1.4%	-3.5%	-0.4	O=C(CNC(=O)c1ccc(Br)o1)NCC1COc2ccccc2O1 (stereo not given)
-2.1	-1.4	3.4%	-12.4%	-13.2%	-2.4%	-0.3	COc1ccccc1C(CC(=O)Nc1ccc(Cl)cc1)c1ccc(OC(C)C)cc1 (stereo not given)
-1.4	0.1	8.5%	-0.6%	2.1%	-2.7%	-1.3	O=C(COC(=O)c1ccccc1)NCC1COc2ccccc2O1 (stereo not given)
1.1	6.4	-4.0%	-11.1%	6.5%	-3.3%	0.6	COc1ccccc1N(C)c1cc2c(c3c1ccn3C)C1CCC2O1 (stereo not given)
0.5	-0.6	-4.7%	-1.9%	-4.8%	-6.4%	-0.2	O=C(O)c1cnc(-c2ccccc2)nc1-c1ccccc1
-0.5	1.3	-4.6%	-19.4%	-20.1%	-0.2%	1.4	CCOC(=O)c1c(CC(C)C)csc1/N=C/C1C(=O)CCCC1=O
-0.2	-4.4	-8.8%	7.0%	10.2%	0.0%	-0.4	COc1ccc(/C=N/n2cnc3c([nH]c4ccc(F)cc43)c2=O)cc1CN1CCCC1
-0.4	7.5	10.0%	1.9%	4.3%	-7.2%	-0.7	CCCCNC(=O)C1(C)CCCCN1C(=O)c1ccc2ccccc2n1 (stereo not given)
1.2	-0.5	-8.3%	-10.4%	-8.6%	-1.4%	-0.1	Cn1ccc2c(-c3ccc(C(=O)O)cc3)cc3c(c21)C1CCC3O1 (stereo not given)
0.1	4.1	8.9%	2.8%	-5.2%	-2.2%	2.9	CCC(=O)N1C(C(=O)N2CCCC2)CSC1c1ccc(OC)cc1 (stereo not given)
2.2	-1.2	-7.9%	12.9%	5.3%	0.4%	-2.0	COC(=O)c1ccccc1S(=O)(=O)Nc1ccc(OC)nc1
-0.3	2.5	8.7%	-10.8%	-0.5%	-18.1%	-0.2	COCCN(CCOC)Cc1cc(=O)oc2cc(OC)c(Cl)cc12
0.0	-1.3	-2.4%	?	-3.7%	-5.9%	-0.3	CC(=O)N(CCC(c1ccco1)C(C)C)Cc1ccc(OC(C)C)cc1 (stereo not given)
0.1	-4.1	2.8%	3.3%	7.3%	-6.2%	-0.3	COc1ccccc1CCNC(=O)C1CCN(C(=O)/C=C/c2ccccc2)CC1
1.1	1.5	-11.9%	-10.9%	-4.2%	-2.1%	1.8	COc1ccc(Nc2n[nH]c(N)c2C(N)=O)cc1
1.0	10.3	2.2%	-5.2%	0.9%	4.6%	0.4	O=c1cc(Cl)c(-c2ccccc2)nn1Cc1ccc(Cl)cc1
-1.2	0.4	-16.6%	?	-13.8%	26.7µM*	-0.1	CCCCC[C@@H]1C=C(C(=O)O)[C@H](c2ccc(Cl)c(Cl)c2)N1S(=O)(=O)c1ccc(C)cc1
0.0	10.5	-6.1%	-19.4%	-3.4%	-0.4%	-0.6	CC1(C(=O)Nc2cnc3ccccc3c2)CCN1Cc1ccc2ccccc2c1 (stereo not given)
-3.1	38.1	-0.2%	2.1%	-5.5%	-1.5%	-0.5	COc1cccc(N/C=C/C(=O)c2ccc(Br)cc2)c1

3 compounds out of the list above, sorted by the value under EPAC1 antagonist, smallest number first.
Molecule	EPAC1 antagonist
CCOC(=O)c1c(CC(C)C)csc1/N=C/C1C(=O)CCCC1=O	-19.4%
Cn1ccc2c(-c3ccc(C(=O)O)cc3)cc3c(c21)C1CCC3O1 (stereo not given)	-10.4%
O=C(COC(=O)c1ccccc1)NCC1COc2ccccc2O1 (stereo not given)	-0.6%

Other results follow.
CCT modulator	PI5P4Ka inh	EPAC1 ag	EPAC1 antagonist	WRN inhibitor	PLK1 PBD block	IL2 activator	SMILES
1.2	-4.8	-7.1%	-12.5%	3.7%	4.1%	-0.1	CCOC(=O)N1CCN(C(c2cc3ccccc3o2)c2nnnn2C(C)(C)C)CC1 (stereo not given)
-0.1	1.1	9.1%	-21.8%	-14.2%	2.0%	1.1	O=C1OC(c2ccccc2)(c2ccc(O)cc2)c2ccccc21 (stereo not given)
1.0	-0.9	-11.8%	-3.4%	-1.8%	-3.2%	2.5	COc1ccc(C2CC(=O)Oc3cc(OC)ccc32)cc1 (stereo not given)
-5.5	-1.2	-9.0%	?	-9.7%	23.8µM*	0.3	Cc1ccc(S(=O)(=O)N2[C@@H](c3ccc(Br)cc3)C(C(=O)O)=C[C@H]2CC2CCCC2)cc1
-0.5	-2.2	5.7%	0.8%	-0.4%	-14.1%	-0.7	COc1cccc(Cn2cnc(-c3ccccc3OC)c2C2CC2)c1
1.3	5.2	-10.5%	3.7%	-1.9%	-17.5%	1.0	CCCCCc1ccc(CC(=O)N2CCOCC2)cc1
.	-13.7	-4.7%	-17.3%	-10.9%	-7.0%	-0.8	COc1ccc(C(=O)C(=O)N2CCC(Cc3ccccc3)CC2)cc1OC
-0.6	8.0	-9.0%	-20.5%	-7.0%	-2.0%	1.9	Cc1ccc(N(Cc2ccc([N+](=O)[O-])cc2)C(=O)c2ccco2)cc1C
-1.4	4.7	-20.0%	-13.5%	-5.2%	-0.3%	-0.4	CC(C)(C)c1ccc2c(c1)C(c1ccc3c(c1)OCO3)CC(=O)O2 (stereo not given)
1.4	-16.9	-7.7%	0.0%	-14.2%[57.1 µM]	-26.2%	-1.6	O=c1ccc(NS(=O)(=O)c2ccc(Cl)cc2)cn1Cc1ccc(Cl)c(Cl)c1
-0.6	-6.1	5.9%	2.2%	2.5%	-5.0%	-1.0	COc1ccc(/C=N/n2cnc3c([nH]c4ccc(C)cc43)c2=O)cc1CN1CCCC1
-0.3	0.5	0.1%	3.8%	-3.2%	3.5%	-0.2	CCN(CC)CCN(C)C(c1cc2ccccc2o1)c1nnnn1C(C)(C)C (stereo not given)
1.6	2.1	5.5%	-24.3%	-5.2%	2.8%	-0.7	COc1ccc(N2C(=O)C(F)(F)C2c2ccccc2F)cc1 (stereo not given)
0.4	.	7.2%	2.8%	0.1%	-12.4%	-0.7	COc1ccc(NC(=O)CN2CCCN(S(=O)(=O)c3ccc(F)cc3)CC2)cc1
-2.3	-2.9	-1.6%	-8.1%	-3.1%	3.1%	2.6	COc1ccc(C(=O)c2ccc(OC)cc2OC)cc1
-0.8	3.8	-4.3%	1.5%	0.3%	3.1%	-0.5	COC(=O)c1ccc2nc(-c3ccc(C)cc3)c(Cc3cccc(Cl)c3)n2c1
-1.3	-0.8	-6.6%	-2.7%	0.9%	2.3%	-0.4	Cn1ccc2c(-c3ccc(C(N)=O)cc3)cc3c(c21)C1CCC3O1 (stereo not given)
0.3	-6.3	-10.7%	-6.5%	-6.2%	-12.8%	-0.4	COc1ccccc1Cc1c(-c2ccc(C#N)cc2)nc2ccc(Br)cn12
0.5	2.1	-18.9%	7.2%	3.1%	0.0%	-4.0	O=C(Nc1ccc([N+](=O)[O-])cc1)C(c1ccccc1)c1ccccc1
0.8	11.9	0.3%	4.8%	-6.6%	-0.1%	-3.1	Cc1ccc(C2(c3noc(CN(C)Cc4ccccn4)n3)CCCC2)cc1
-3.3	.	2.7%	-13.1%	-2.1%	-3.8%	-1.8	COc1ccc(S(=O)(=O)Nc2cc(C)cc(C)n2)c2ccccc12
2.3	0.2	-4.0%	-8.4%	-2.8%	-11.2%	-0.3	CCOC(=O)C1=C(C)c2ccccc2OC1C(=O)OCC (stereo not given)
2.0	0.6	13.2%	4.1%	-5.3%	1.4%	-0.5	Cc1ccc(C2(c3noc(CN4CCC(C(=O)N5CCOCC5)CC4)n3)CCCC2)cc1
-2.4	-4.7	-0.4%	-14.5%	-3.1%	-9.0%	-2.8	COc1ccc2c(c1)CCc1c(C(=O)N(C)c3ccccc3)noc1-2
-1.5	-9.0	-1.5%	0.7%	11.4%	-4.4%	-0.2	CC(C)N1CCc2c(sc(NC(=O)CCc3ccccc3)c2C(N)=O)C1
-1.3	0.2	6.3%	-7.8%	7.8%	?	-0.5	COc1ccc(-c2nc(C)sc2CC(=O)O)cc1OC
-0.2	.	-1.1%	-10.3%	-8.7%[57.1 µM]	-8.0%	0.2	O=C(Nc1ccccc1)C1=C(O)CC(c2ccoc2)CC1=Nc1ccccc1 (stereo not given)
-1.7	-7.7	22.9%	-0.9%	15.7%	-24.3%	0.2	O=C(C1CC1)N1CCc2sccc2C1c1ccc(Cl)cc1 (stereo not given)
-0.6	4.6	-3.4%	?	-7.3%	-8.2%	-0.7	COc1ccccc1C1CC(=O)Oc2c(C(C)C)ccc(C)c21 (stereo not given)
-3.1	0.8	-0.7%	-10.6%	-0.5%	-4.6%	-1.0	COc1ccc(/C=N/n2cnc3c([nH]c4ccc(F)cc43)c2=O)cc1CSc1ccccn1
1.7	4.5	-7.4%	-10.5%	1.4%	-25.2%	-1.4	CCOC(=O)C(=O)Nc1nc(-c2ccc3c(c2)CCN3C(=O)C2CC2)c(C)s1
-1.3	-0.8	-0.4%	10.4%	10.2%	-17.0%	-0.6	CN1CCN(S(=O)(=O)c2ccc(NC(=S)NC(=O)C3CCC3)cc2)CC1
0.3	1.9	-2.5%	-18.6%	-6.7%	1.5%	-4.6	COC(=O)c1cc2ccccc2n1S(=O)(=O)c1ccccc1
2.6	?	-6.0%	4.8%	-3.0%	2.99µM*	-0.1	COc1ccc(Br)cc1S(=O)(=O)N1CCCC1
-3.8	.	-1.6%	21.3%	-8.1%	?	-1.8	O=C(NC1c2ccccc2-c2ccccc21)N1CCOCC1
-0.9	-0.2	3.3%	-6.7%	-5.7%	-2.3%	-0.2	CC[C@@H]1C=C(C(=O)O)[C@H](c2ccc(F)cc2)N1S(=O)(=O)c1ccc(C)cc1
0.6	.	1.8%	-10.0%	-0.4%	-6.6%	-1.2	Cc1cccc(C)c1NC(=O)Cn1nc(-c2ccccc2)nc1-c1ccccc1
-0.2	0.8	-18.0%	3.0%	6.7%	-0.3%	2.0	CCC1(C)Cc2ccccc2-c2c1c(=O)n(-c1ccc(C)cc1)c1nnnn21 (stereo not given)
0.8	-0.7	-0.6%	30.6%[activator]	2.0%	-7.4%	-0.2	Cc1ccc(C2(c3noc(CN4CCOCC4)n3)CCCC2)cc1
-2.6	2.4	3.0%	4.3%	3.4%	-2.3%	-5.5	CC(CCc1ccco1)NC(=O)c1cc2c(-c3ccccc3F)nn(C)c2s1 (stereo not given)

Bioassay records (PubChem BioAssay)
